Source: PubChem
D2 agonist – agonists of human D2 dopamine receptor (beta-arrestin) | DiscoveRx PathHunter D2 beta-arrestin, luminescence, 90 min; 100% = 57 uM dopamine signal | 360,000 compounds, 0.084% hits | P14416 | activation, % (no concentration beside the values); in the data active = activation above about 40%; inconclusive = about 15% to 40%; inactive = below about 15%; further: compound concentration not given in the record; the text of the record calls up to 30% inactive
Target sequence (P14416 whole entry, looked up): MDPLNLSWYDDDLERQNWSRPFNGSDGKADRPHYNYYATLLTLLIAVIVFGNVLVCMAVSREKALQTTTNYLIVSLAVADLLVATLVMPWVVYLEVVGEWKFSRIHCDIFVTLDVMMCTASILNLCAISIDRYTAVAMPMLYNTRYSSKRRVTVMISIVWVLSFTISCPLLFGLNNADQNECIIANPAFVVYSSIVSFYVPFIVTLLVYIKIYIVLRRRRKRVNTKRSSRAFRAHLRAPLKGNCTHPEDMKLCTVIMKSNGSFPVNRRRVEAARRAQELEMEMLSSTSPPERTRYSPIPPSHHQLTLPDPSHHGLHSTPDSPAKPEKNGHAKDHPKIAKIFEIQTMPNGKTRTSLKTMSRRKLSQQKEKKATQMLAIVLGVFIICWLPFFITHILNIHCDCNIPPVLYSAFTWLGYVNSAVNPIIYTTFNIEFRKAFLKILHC
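Agonist mode: compounds alone added to overnight-plated D2 PathHunter cells for 90 min at 37 C, with 57 uM final dopamine (EC100) defining full response. Beta-arrestin recruitment detected by chemiluminescent reagent, read after 1 h at ambient temperature.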
ClpP mod – qHTS Assay for Activators of ClpP. ATP-dependent Clp protease proteolytic subunit (Bacillus subtilis (strain 168)), P80244. purified B. subtilis ClpP, FRET peptide cleavage, 20 min. Potency, µM (series often up to 57.5 µM), for the others: at the top dose activity change, negative = active. 340,000 compounds, 1.9% hits. AID 651965, 2013; active = well fitted falling curve with a large enough effect; inconclusive = small, poorly fitted or top-dose-only effect; inactive = no such curve, though single readings can be large or run the other way; further: potency means the concentration at half of the fitted maximal effect; the source files actives as falling curves though it sought activators and does not explain the sign; nearly all actives have a fitted effect of over 65% in size; many hits overshoot -100%
Target sequence (P80244 whole entry, looked up): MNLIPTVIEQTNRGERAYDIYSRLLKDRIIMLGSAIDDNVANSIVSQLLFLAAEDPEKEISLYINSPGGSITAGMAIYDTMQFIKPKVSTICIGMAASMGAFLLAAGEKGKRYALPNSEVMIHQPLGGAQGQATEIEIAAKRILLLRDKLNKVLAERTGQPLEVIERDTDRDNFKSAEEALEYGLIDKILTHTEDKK
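ClpP 10 microg/mL final, pH 8 Tris/KCl buffer with BSA, glycerol, Tween-20; compound pinned in; FRET-FV substrate; RT 20 min; Ex320/Em430; ΔFRET vs ADEP 5.8 microM, DMSO, no enzyme.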
Sfp inh – Sfp phosphopantetheinyl transferase inhibition; Q9F4F7; Biochemical Sfp PPTase activity, qHTS; Potency, µM, for inactives: max response, negative = inhibition, most hits filed as inhibitors; 310,000 compounds, 3.5% hits; active means well fitted inhibition curve with a large enough effect; inconclusive means small, poorly fitted or top-dose-only effect, or another doubt; inactive means no such curve, though single readings can be large or run the other way;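 further: the enzyme is Sfp with the accession as filed and its product quenches rhodamine fluorescence; potency means the concentration at half of the fitted maximal effect; 0% = enzyme reaction without inhibitor and -100% = no enzyme wells; top concentration of the series not given in the record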
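Fluorescence-quenching assay with 15 nM Sfp, 5 uM rhodamine-CoA and 12.5 uM BHQ-2-labelled ybbR peptide in pH 7.6 Hepes/MgCl2 buffer. Enzyme was pre-incubated with compound for 15 min at room temperature. Rate was taken from the 30-min fluorescence change (525/598 nm).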
gsp antag – gsp mutant antagonism | gsp-mutant cells, cAMP HTRF, 30 min; control for the full effect not named in the record | Potency, µM (highest dose often 76.9 µM), inactives show top-dose activity change, negative = inhibition, actives largely listed as inhibitors | 340,000 compounds, 0.4% hits; active = falling curve of any shape with a large fitted effect; inconclusive = falling curve, mostly with a smaller effect; inactive = flat or rising curve; cell line not stated here;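 further: intracellular cAMP measured with PDE inhibitor Ro 20-1724 present during compound exposure; potency means the concentration at half of the fitted maximal effect; on the % scale 0 is the no-effect control and ±100 the full control effect; nearly all actives have a fitted effect of over 65% in size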
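G418-selected cells were plated in DMEM/10% FBS for 16-24 h at 37C, then treated with compounds plus the PDE inhibitor […] (300 uM solution added) for 30 min at 37C. Intracellular cAMP was measured by HTRF after 30 min lysis at room temperature.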
Menin MLL FP FL – displaces fluorescein MLL peptide from human menin | Fluorescence polarization, fluorescein-MLL peptide displacement from menin | FP activity change, % at 61.4 µM | 290,000 tested, under 10 active | AID 1766; inconclusive = falling polarisation curve, or a change in total fluorescence; inactive = total fluorescence flat and polarisation flat or rising; no compound was filed as active; the % refers to the polarisation; negative = inhibition;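 further: % of control where 0% means no effect; inhibitors lower the polarisation; unlabelled MLL peptide was the positive control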
gsp agonist – agonists of gsp mutant (McCune-Albright syndrome); gsp mutant cells, cAMP HTRF, 30 min; control for the full effect not named in the record; Potency, µM (doses to about 76.9 µM), inactives show at the top dose activation (cAMP increase), most hits filed as activators; 340,000 compounds, 0.13% hits; AID 624287; active = well fitted activation curve with a large enough effect; inconclusive = small, poorly fitted or top-dose-only effect, or another doubt; inactive = no such curve, though single readings can be large or run the other way; cell line not stated here;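 further: phosphodiesterase inhibitor Ro 20-1724 added with compounds to block cAMP breakdown; potency means the concentration at half of the fitted maximal effect; nearly all actives have a fitted effect of over 60% in size; about a fifth of the inactives were tested at one dose only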
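Cells in DMEM/10% FBS with G418 were pretreated with compounds in DMSO plus […] (300 uM stock) for 30 min at 37C. cAMP was measured by HTRF (cAMP-d2 plus anti-cAMP antibody-K) after 30 min at room temperature.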
PINK1 modulator – PINK1 expression modulation | PINK1 immunofluorescence, high-content cytometry, 24 h | Potency, µM (series often up to 76.6 µM), inactives show top-dose activation (PINK1 increase), usual class: activators | 410,000 compounds, 0.2% hits | AID 624263; active = well fitted activation curve with a large enough effect; inconclusive = small, poorly fitted or top-dose-only effect; inactive = flat fitted curve, though single readings scatter; cell line not stated here;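 further: potency means the concentration at half of the fitted maximal effect; % of control where 0% means no effect; nearly all actives have a fitted effect of over 65% in size; a mitochondrial uncoupler was the plate control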
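Readout is PINK1 immunofluorescence, quantified alongside mitochondrial, cell and nuclear markers by laser-scanning microplate cytometry. Cells from a stable line were exposed to compound titrations (5 concentrations) for 24 hours, with CCCP controls.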
The depositor's hits bear a star; [ ] = remark or other dose.

Cn1nnc2c[n+](CC(=O)c3ccc4ccccc4c3)cc(Br)c21 was read as D2 agonist -0.3, Sfp inh 9.3%, gsp antag -2.5%, Menin MLL FP FL 8.2, gsp agonist 18.9% and PINK1 modulator 4.2%.
For Cc1cc(NC(=O)COC(=O)c2cnccn2)ccc1Br the results were D2 agonist 2.3, ClpP mod 0.7%, gsp antag 9.6%, gsp agonist -5.5% and PINK1 modulator 0.7%.
COc1ccc(/C=N/NC(=S)Nc2ccccc2)cc1COc1ccc(F)cc1 was read as D2 agonist -4.1, ClpP mod 12.9%, Sfp inh inconclusive, gsp antag 11.6%, Menin MLL FP FL 4.4, gsp agonist -11.8% and PINK1 modulator 0.4%.
Cc1cccc(C(CC(=O)N2CCCC2)c2ccccc2)c1O (stereo unspecified) was read as D2 agonist -2.6, ClpP mod -2.0%, Sfp inh 12.7%, gsp antag 3.7%, Menin MLL FP FL 5.7, gsp agonist 12.0% and PINK1 modulator -0.5%.
For Cc1cccnc1NC(=S)NC(=O)c1cncc(Br)c1 the results were D2 agonist -5.9, ClpP mod 20.0%, Sfp inh inconclusive, gsp antag 5.1%, Menin MLL FP FL 1.5, gsp agonist 18.1% and PINK1 modulator 7.5%[38.3 µM].
`COCCn1nnnc1CN1CCOCC1` gave D2 agonist 1.4, ClpP mod -1.0%, Sfp inh -2.1%, gsp antag 0.0%, Menin MLL FP FL 2.3 and gsp agonist -3.3%.
Cc1ccc(S(=O)(=O)N2CCOCC2)cc1NC(=O)Cn1nnc(-c2ccccc2)n1 was read as D2 agonist -2.1, ClpP mod -1.2%, gsp agonist -52.8%[inhibitor] and PINK1 modulator 5.3%.
Screening COc1cccc(NC(=O)CCC2CCN(C(=O)c3cccc(NC(C)=O)c3)CC2)c1 returned D2 agonist -0.9, ClpP mod 0.4%, Sfp inh 17.9%, gsp antag 15.7%, Menin MLL FP FL 1.2, gsp agonist -4.6% and PINK1 modulator 1.6%.
For O=C(O)c1ccc(NC2=C(N3CCOCC3)C(=O)c3ccccc3C2=O)cc1 the results were D2 agonist 2.6, ClpP mod 2.9%, Sfp inh -1.7%, gsp antag -12.5%, Menin MLL FP FL -2.0, gsp agonist -35.4%[inhibitor] and PINK1 modulator 0.8%.
`Cc1ccc(/C=N/NC(=O)Cc2c(F)cccc2Cl)s1` gave D2 agonist -2.6, ClpP mod -3.4%, Sfp inh 22.0%, gsp antag 2.7%, Menin MLL FP FL 0.6, gsp agonist 27.5% and PINK1 modulator -0.9%.
Cc1ccc(S(=O)(=O)N2CCOC23CCN(C(=O)C(=O)NCCC(C)C)CC3)cc1 was read as D2 agonist -4.0, gsp antag 2.6%, gsp agonist 17.4%[15.4 µM] and PINK1 modulator 4.7%.
`CCN(CC(=O)Nc1cccc(F)c1)CC(=O)Nc1ccccc1OC` gave D2 agonist -1.0, ClpP mod 0.0%, Sfp inh 15.3%, gsp antag -1.5%, Menin MLL FP FL 4.3, gsp agonist inconclusive and PINK1 modulator -0.9%.
For CC(C)Cc1nc(SCC(=O)NCc2ccccc2)n[nH]1 the results were D2 agonist -3.5, ClpP mod 1.7%, Sfp inh 19.2%, gsp antag -2.2%, Menin MLL FP FL 4.0, gsp agonist -3.3% and PINK1 modulator 0.8%.
Screening O=C(COc1ccccc1)NCC(=O)N/N=C/c1cc(Br)ccc1OCc1ccccc1 returned D2 agonist -1.5, Sfp inh 1.0%, gsp antag -14.0%, Menin MLL FP FL 18.1, gsp agonist -33.6%[15.4 µM] and PINK1 modulator 0.4%.
`COc1ccc(C(=O)CSc2ncn[nH]2)cc1OC` gave D2 agonist -2.7, ClpP mod -1.3%, Sfp inh -9.9%, gsp antag 1.5%, Menin MLL FP FL 3.0, gsp agonist -0.9% and PINK1 modulator 0.6%.
For COc1ccc(C2N(c3cc(Cl)ccc3OC)C(=O)C3CCCN32)c(OC)c1 (stereo unspecified) the results were D2 agonist 2.0, ClpP mod 0.5%, Sfp inh 7.3%, gsp antag -0.1%, Menin MLL FP FL 1.4, gsp agonist 2.3% and PINK1 modulator 3.1%.
`CC1CCC2(CC1)NC(=O)N(CC(=O)N1CCN(c3ccccc3)CC1)C2=O` (stereo unspecified) gave D2 agonist 0.5, ClpP mod 1.3%, gsp antag -6.6%, gsp agonist -18.2% and PINK1 modulator -2.0%.
COc1ccc(-c2ccc(=O)n(CC(=O)Nc3cccc(O)c3)n2)cc1OC was read as D2 agonist 1.0, ClpP mod 0.2%, Sfp inh 21.7%, gsp antag 8.5%, Menin MLL FP FL 4.4, gsp agonist -1.5% and PINK1 modulator 0.0%[38.3 µM].
`COC(=O)c1cn(C(=O)c2ccc(OC)c(OC)c2)c2ccccc12` gave D2 agonist -3.4, ClpP mod -2.8%, Sfp inh -8.3%, gsp antag -0.6%, Menin MLL FP FL -1.0, gsp agonist -3.8% and PINK1 modulator 9.9%.
`CNC(=S)N/N=C/c1ccccc1Cl` gave D2 agonist -1.8, ClpP mod inconclusive, Sfp inh -22.6%, gsp antag -20.6%, Menin MLL FP FL 2.7, gsp agonist -18.9% and PINK1 modulator 2.2%.
For COc1ccc(C(CNC(=O)c2ccc(OCc3c(C)noc3C)cc2)N2CCCC2)cc1 (stereo unspecified) the results were D2 agonist -1.6, ClpP mod -0.5%, gsp antag 3.5%, gsp agonist -19.1% and PINK1 modulator 1.9%.
For O=C(OCCN1C(=O)c2ccccc2C1=O)c1cccc(OC(F)F)c1 the results were D2 agonist -3.2, ClpP mod -0.5%, Sfp inh -4.0%, gsp antag -5.0%, Menin MLL FP FL -0.5, gsp agonist -24.1% and PINK1 modulator 1.3%.
For CC(NC(=O)Cn1cnnn1)c1cccc(C(F)(F)F)c1 (stereo unspecified) the results were D2 agonist 0.8, Sfp inh 16.8%, gsp antag 7.6%, Menin MLL FP FL -21.3, gsp agonist 10.3% and PINK1 modulator 0.4%.
Screening CN1C/C(=C\c2ccc(N3CCOCC3)cc2)C(=O)/C(=C/c2ccc(N3CCOCC3)cc2)C1 returned D2 agonist -3.8, ClpP mod -2.0%, Sfp inh -18.6%, gsp antag -8.2%, Menin MLL FP FL inconclusive, gsp agonist 3.3% and PINK1 modulator 7.2%.
CCOCCn1c2ccccc2c2nc3ccccc3nc21 was read as D2 agonist -1.1, ClpP mod -16.1%, Sfp inh -1.2%, gsp antag -13.1%, Menin MLL FP FL 5.6, gsp agonist inconclusive and PINK1 modulator 3.0%.
O=S(=O)(Nc1ccc(N2CCCCC2)cc1)c1ccc(F)cc1 was read as D2 agonist 0.2, ClpP mod -0.2%, Sfp inh -0.3%, gsp antag 3.6%, Menin MLL FP FL 3.0, gsp agonist -11.5% and PINK1 modulator 1.9%.
`CCCCn1c(CN2CCN(C(=O)c3ccco3)CC2)nc2c1c(=O)n(C)c(=O)n2C` gave D2 agonist 0.0, ClpP mod -0.2%, Sfp inh 1.5%, gsp antag 5.9%, Menin MLL FP FL 0.4, gsp agonist inconclusive and PINK1 modulator 0.1%.
COC(=O)c1cccc(S(=O)(=O)N2CCC(n3nnc4cc(F)ccc43)CC2)c1 was read as D2 agonist -1.1, ClpP mod -1.1%, Sfp inh -9.8%, gsp antag -12.0%, Menin MLL FP FL 3.1, gsp agonist -39.5%[inhibitor] and PINK1 modulator 2.2%.
For CC(C)C[C@H](NC(=O)c1nc[nH]c1C(=O)N[C@@H](CC(C)C)C(=O)OC(C)(C)C)C(=O)OCc1ccccc1 the results were D2 agonist -5.2, ClpP mod 2.3%, Sfp inh 34.1%[activator], gsp antag -2.3%, Menin MLL FP FL -0.4 and PINK1 modulator inconclusive.
Screening Cc1c(CCC(=O)NCCC(=O)O)c(=O)oc2cc3occ(-c4ccccc4)c3cc12 returned D2 agonist 0.0, ClpP mod -13.8%, Sfp inh 6.4%, gsp antag -25.2%, Menin MLL FP FL -0.8, gsp agonist 19.8% and PINK1 modulator 1.2%.
`CC(C)CNc1nc(S(=O)(=O)c2ccccc2)c(Cl)s1` gave D2 agonist -0.2, Sfp inh 2.6%, gsp antag 4.1%, Menin MLL FP FL 4.0, gsp agonist 5.5%[15.4 µM] and PINK1 modulator 3.5%.
CCn1c(SCc2nc3ccccc3c(=O)[nH]2)nnc1C(C)NC(=O)c1ccccc1F (stereo unspecified) was read as D2 agonist 0.3, Sfp inh 9.8%, gsp antag -7.7%, Menin MLL FP FL 0.0, gsp agonist -21.0% and PINK1 modulator -1.5%.
Screening COc1cccc(NC(=O)c2cccnc2)c1 returned D2 agonist -2.2, ClpP mod 2.2%, Sfp inh 9.1%, gsp antag 4.1%, Menin MLL FP FL 5.5, gsp agonist 11.1% and PINK1 modulator 0.4%.
`O=c1c2[nH]c3ccc(F)cc3c2ncn1CCCn1ccnc1` gave D2 agonist -3.4, ClpP mod inconclusive, Sfp inh 26.6%, gsp antag -4.9%, Menin MLL FP FL 1.5, gsp agonist -1.4% and PINK1 modulator -1.7%.
O=C(NC(Cc1ccc(F)cc1)C(=O)O)c1ccccc1 (stereo unspecified) was read as D2 agonist -3.8, ClpP mod 0.2%, Sfp inh 9.4%, gsp antag 8.3%, Menin MLL FP FL -1.1, gsp agonist -0.6% and PINK1 modulator 2.1%.
For COc1ccc(S(=O)(=O)N(Cc2ccccc2)c2ccccc2C(=O)N2CCOCC2)cc1 the results were D2 agonist 0.4, Sfp inh 3.8%, gsp antag 9.7%, Menin MLL FP FL 0.8, gsp agonist -7.3%[15.4 µM] and PINK1 modulator 1.8%.
Screening Cc1occc1C(=O)O/N=C(\N)c1ccc(Cl)cc1 returned D2 agonist inconclusive, ClpP mod -2.3%, Sfp inh 14.3%, gsp antag -2.2%, Menin MLL FP FL 1.5, gsp agonist -8.0%[15.4 µM] and PINK1 modulator -3.0%.
COc1ccc(Nc2ncnc3c2cnn3Cc2ccc(C)cc2)cc1 was read as D2 agonist -3.4, ClpP mod -1.9%, Sfp inh 11.9%, gsp antag -4.5%, Menin MLL FP FL -0.1, gsp agonist -1.6% and PINK1 modulator -0.9%.
